B2AR ag = agonists of human beta-2 adrenergic receptor inducing internalization. Am2.2-beta2AR cells, FAP receptor internalization, flow cytometry; reference of the scale not given here. 340,000 tested, 0.43% active. response, % (no concentration beside the values);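 active = response above a set limit, near 3 SD of response in nonfluorescent compounds, cut at about 42% in these data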;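 also: stock transfer was 100 nL into about 11 µL; a reference agonist was the positive control; negative values mostly stem from fluorescent compounds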
Target sequence (P07550 whole entry, looked up): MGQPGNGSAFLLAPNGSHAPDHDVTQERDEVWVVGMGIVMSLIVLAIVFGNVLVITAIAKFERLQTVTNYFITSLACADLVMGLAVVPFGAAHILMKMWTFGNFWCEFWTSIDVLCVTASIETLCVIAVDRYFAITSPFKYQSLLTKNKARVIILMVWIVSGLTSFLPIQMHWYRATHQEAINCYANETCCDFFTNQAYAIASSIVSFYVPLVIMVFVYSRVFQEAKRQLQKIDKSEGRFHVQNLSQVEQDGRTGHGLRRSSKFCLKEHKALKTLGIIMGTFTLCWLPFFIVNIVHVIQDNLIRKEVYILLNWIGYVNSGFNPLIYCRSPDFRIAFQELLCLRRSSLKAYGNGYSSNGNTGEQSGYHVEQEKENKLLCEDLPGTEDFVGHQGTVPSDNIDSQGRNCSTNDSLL
FGF22 binding = FGF22 (human) thermal shift binding. Q9HCT0. recombinant FGF22 thermal shift, SYPRO orange fluorescence; percent of sucrose octasulfate shift, DMSO zero. calls only at 9.99 µM. 340,000 tested, 1.5% active. AID 651658;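 active = melting point raised past a set limit in the mean and every replicate; three in four hits are not shown here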
Target sequence (Q9HCT0 whole entry, looked up): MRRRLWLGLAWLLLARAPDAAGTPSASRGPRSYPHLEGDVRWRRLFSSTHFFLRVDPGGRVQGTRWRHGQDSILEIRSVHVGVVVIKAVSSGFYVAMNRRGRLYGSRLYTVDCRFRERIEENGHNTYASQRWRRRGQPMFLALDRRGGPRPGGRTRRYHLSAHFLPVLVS
rRNA inh HTS = selective bacterial rRNA inhibition in E. coli | 350,000 tested, 1.6% active | AID 720706 | E. coli WT GFP vs humanized-ribosome RFP mutants, fluorescence, 24 h; stronger effect = lower value; DMSO median 0, no signal -100 | GFP signal change (wild-type ribosome), % (no concentration beside the values);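 active = significant combined selectivity score with lowered wild-type GFP, culture density cut under 30%, mutant RFP and density less affected; inactive = any of these conditions unmet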; also: one replicate is shown; some compounds called inactive have numbers as strong as hits
ALR H2O2 inh = human ALR oxidase inhibition via reduced H2O2 | inhibition, % (test concentration not listed) | 290,000 tested, 3.8% active | purified ALR, DTT oxidation, H2O2 HRP-luminol luminescence | AID 485317;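 active = mean and each replicate at 75% or more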;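 also: stock transfer was 7.5 nL into about 7.5 µL; 0% = neutral wells and 100% = wells with inactivated enzyme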
Target sequence (P55789 whole entry, looked up): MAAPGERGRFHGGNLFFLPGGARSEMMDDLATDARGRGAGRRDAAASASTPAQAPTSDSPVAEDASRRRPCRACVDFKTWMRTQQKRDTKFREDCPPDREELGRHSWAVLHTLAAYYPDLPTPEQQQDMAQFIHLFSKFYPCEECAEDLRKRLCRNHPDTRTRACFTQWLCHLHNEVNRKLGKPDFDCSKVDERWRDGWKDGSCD
UCH37 inh = inhibitors of human deubiquitinating enzyme UCH37. 330,000 tested, 0.33% active. purified proteasome/UCH37, Ub-AMC cleavage fluorescence. inhibition, % (test concentration not listed). Q9Y5K5;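 active = mean of two replicates above 20%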;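 also: 0% = compound-free wells with enzyme and 100% = wells lacking proteasome; stock transfer was 100 nL into about 20 µL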
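Reagent: Ub-AMC substrate; assay system: Proteasome-associated human UCH37 deubiquitinase; controls: no-proteasome and no-compound wells; read-out: % inhibition of Ub-AMC cleavage fluorescence; timing: 30 min preincubation with enzyme, 25 min cleavage at room temperature; signal: AMC fluorescence from Ub-AMC cleavage, excitation 355 nm, emission 460 nm; buffer or medium: Tris-HCl pH 7.4 plus ovalbumin, ATP-MgCl2, DTT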
HNF4A DNA FP = change in binding of human HNF4 alpha to DNA; P41235; HNF4a-FITC DNA binding, fluorescence polarization, 1 h; activity change, % at 10 µM; 360,000 tested, 0.3% active; AID 1224865; in the data active = activity change above about 30%, passing the limit was not always enough;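 also: controls were the assay level and a saturating level of protein; the project sought stronger binding though the title names inhibitors; some compounds called inactive have numbers as strong as hits; positive values seem to mean higher polarization but the record does not say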
E coli growth = blocks Escherichia coli growth; OD600, 23 h; stronger effect = lower value; OD600 absorbance (test concentration not listed); 330,000 tested, 0.21% active; AID 1053175;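 active = OD600 absorbance below the run mean of sample wells minus 3.6 SD, in any replicate, cut at about 0.56 in these data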;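 also: stock transfer was 300 nL into about 60 µL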
rRNA inh HTS OD600 = further read-out of rRNA inh HTS, marked with its call; OD600 change, %; measured here: OD600 growth;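 optical density of the mix in the first replicate; 0 = DMSO median and -100 = no signal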
rRNA inh HTS RFP = recorded beside rRNA inh HTS, whose call it bears; RFP signal change, %; measured here: RFP humanized mutant strains;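 first replicate; 0 = DMSO median and -100 = no signal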
* = called active by the depositor; i = inactive; . = not tested or not shown. Not all compounds are listed; count on the stated rates, not on these rows.

item	B2AR ag	FGF22 binding	rRNA inh HTS	rRNA inh HTS OD600	rRNA inh HTS RFP	ALR H2O2 inh	UCH37 inh	HNF4A DNA FP	E coli growth	Compound
1	-3	.	.	.	.	10	-151	-4.8	0.68	COc1ccc(-c2nc(C#N)c(NCC3CCCO3)o2)cc1 (configuration not stated)
2	3	i	-6	-3	-2.2	-5	-36	0.0	0.65	CSc1cccc2sc(NC(=O)C3=COCCO3)nc12
3	.	i	-12	-30	0.3	.	.	-4.0	.	COc1ccc(NC(=O)c2cc(C3CCCCN3C(=O)OCC(C)C)on2)c(C)c1 (configuration not stated)
4	5	i	-23*	-13*	-7.3*	-5	4.2	-3.0	0.7	COc1ccc(CCNC(=O)c2cc3sccc3n2C)cc1OC
5	-17	i	4	6	-0.5	-7	0.6	2.6	0.66	C=CCSc1n[nH]c(-c2cccs2)n1
6	-3	.	.	.	.	.	-0.2	-0.5	0.78	O=C(CSc1nnnn1-c1ccccc1)Nc1nsc(-c2ccc(Cl)cc2)n1
7	-5	i	7	6	-0.1	.	-0.8	2.6	0.66	COC1=CC(=O)OC(c2ccc(OC)cc2)C1 (configuration not stated)
8	-21	.	.	.	.	-8	i	1.0	0.7	CC1CN(c2oc(-c3cccs3)nc2C#N)CC(C)O1 (configuration not stated)
9	-5	i	-11	-8	2.6	-15	5.6	0.9	0.71	COc1ccc(OCc2cc(C(=O)N3CCC(OC)CC3)no2)c2ccccc12
10	-1	i	-24	-32	-7.5	38	3.0	3.2	0.7	Cc1ccc(SCc2cc(=O)n(C)[nH]2)cc1
11	-3	i	25	21	1.6	3	0.0	4.4	0.62	Cc1ccc(C)c(S(=O)(=O)Nc2cc(C)on2)c1
12	2	.	.	.	.	-7	4.3	2.0	0.72	O=C(CNC(=O)Cc1ccccc1)NCC(=O)OCc1ccccc1
13	10	i	17	23	6.9	1	.	1.1	.	Cc1cc(Cl)ccc1NC(=O)CCC(=O)N/N=C/c1cccnc1
14	0	i	11	6	-3.6	.	2.9	-1.1	0.71	Cc1ccc(C(=O)NNC2=Nc3cc([N+](=O)[O-])ccc3OC2)cc1
15	1	i	-9	-5	-1.3	2	-0.5	2.7	0.69	CC(=O)Cc1nsc(NC(=O)c2cccc(F)c2)n1

Another view of 10 compounds above:
entry | mol | B2AR ag | FGF22 binding | rRNA inh HTS | rRNA inh HTS OD600 | rRNA inh HTS RFP | ALR H2O2 inh | UCH37 inh | HNF4A DNA FP | E coli growth
4 | COc1ccc(CCNC(=O)c2cc3sccc3n2C)cc1OC | 5 | i | -23* | -13* | -7.3* | -5 | 4.2 | -3.0 | 0.7
5 | C=CCSc1n[nH]c(-c2cccs2)n1 | -17 | i | 4 | 6 | -0.5 | -7 | 0.6 | 2.6 | 0.66
6 | O=C(CSc1nnnn1-c1ccccc1)Nc1nsc(-c2ccc(Cl)cc2)n1 | -3 | . | . | . | . | . | -0.2 | -0.5 | 0.78
7 | COC1=CC(=O)OC(c2ccc(OC)cc2)C1 (configuration not stated) | -5 | i | 7 | 6 | -0.1 | . | -0.8 | 2.6 | 0.66
8 | CC1CN(c2oc(-c3cccs3)nc2C#N)CC(C)O1 (configuration not stated) | -21 | . | . | . | . | -8 | i | 1.0 | 0.7
9 | COc1ccc(OCc2cc(C(=O)N3CCC(OC)CC3)no2)c2ccccc12 | -5 | i | -11 | -8 | 2.6 | -15 | 5.6 | 0.9 | 0.71
10 | Cc1ccc(SCc2cc(=O)n(C)[nH]2)cc1 | -1 | i | -24 | -32 | -7.5 | 38 | 3.0 | 3.2 | 0.7
11 | Cc1ccc(C)c(S(=O)(=O)Nc2cc(C)on2)c1 | -3 | i | 25 | 21 | 1.6 | 3 | 0.0 | 4.4 | 0.62
12 | O=C(CNC(=O)Cc1ccccc1)NCC(=O)OCc1ccccc1 | 2 | . | . | . | . | -7 | 4.3 | 2.0 | 0.72
13 | Cc1cc(Cl)ccc1NC(=O)CCC(=O)N/N=C/c1cccnc1 | 10 | i | 17 | 23 | 6.9 | 1 | . | 1.1 | .

More records
item	B2AR ag	FGF22 binding	rRNA inh HTS	rRNA inh HTS OD600	rRNA inh HTS RFP	ALR H2O2 inh	UCH37 inh	HNF4A DNA FP	E coli growth	Compound
16	0	i	-48	-74	-6.6	3	3.9	1.2	0.66	Fc1ccc(NC(=S)N2CCc3[nH]c4ccccc4c3C2)cc1
17	-1	i	3	-1	-1.2	-4	.	1.2	.	COc1ccc(/C=C/C(=O)NC(=S)Nc2cc3oc4ccccc4c3cc2OC)cc1
18	13	i	-27*	-21*	-0.6*	-1	3.3	-2.1	0.73	CC1Cc2ccccc2N1S(=O)(=O)c1cnc(Cl)c(Br)c1 (configuration not stated)
19	-3	i	7	12	1.4	-17	1.1	2.4	0.66	COC(=O)Cn1c(CN2CCOCC2)nc2c1c(=O)n(C)c(=O)n2C
20	.	i	-9	-22	-2.3	.	.	2.2	.	CN(C)c1ccc(-c2ccnc3c2CC(C)(C(=O)Nc2ccc(Cl)cc2)O3)cc1 (configuration not stated)
21	2	.	.	.	.	-3	-1.3	-1.0	0.67	COC(=O)C(O)(CC(=O)c1ccc(OC)cc1)C(F)(F)F (configuration not stated)
22	-4	.	.	.	.	3	2.0	-1.8	0.71	O=C(/C=C/c1ccc(Br)cc1)NC1CCCCCC1
23	0	i	-2	-9	-3.4	-1	2.3	4.2	0.69	O=C(COC(=O)C1C2CC3OC(=O)C1C3C2)Nc1cccc(Cl)c1 (configuration not stated)
24	-2	i	3	0	-0.6	-7	0.2	1.9	0.72	O=C(CC1C(=O)NCCN1C(=O)c1ccccc1)Nc1cc(Cl)ccc1Cl (configuration not stated)
25	2	.	.	.	.	-13	1.0	3.4	0.81	O=C(CSc1nnc(-c2ccncc2)o1)Nc1ccccc1Cl
26	5	i	8	8	-0.4	-6	3.6	-2.6	0.7	COc1ccc(OCc2nnc(SCC(=O)N3CCOCC3)o2)cc1
27	2	i	3	3	-2.3	-17	0.5	3.4	0.71	COc1cc(S(=O)(=O)Nc2ccncc2)ccc1F
28	.	i	13	17	8.8	.	.	-2.2	.	CC(C)C[C@@H](CN1CCC[C@H]1CN1C(=O)C(=O)NC[C@@H]1Cc1ccc(O)cc1)N1C[C@H](Cc2ccccc2)N(CC2CCCCCC2)C(=O)C1=O
29	-6	i	0	4	-2.0	4	0.9	-2.5	0.65	CC(C)n1cc(CNC(=O)C2CCC(=O)N(Cc3ccccc3F)C2)cn1 (configuration not stated)
30	7	i	-26	-40	0.3	-14	4.3	-4.9	0.64	O=S(=O)(NC1CC2CCC1C2)c1ccc(Br)cc1 (configuration not stated)
31	21	i	-9	-3	0.0	.	2.2	0.5	0.66	Cc1cc(C(=O)Nc2cccc(-c3ccc(N4CCOCC4)nn3)c2)ccc1[N+](=O)[O-]
32	0	.	.	.	.	38	2.8	-1.5	0.73	CCOCCCNC(=O)C(NC(=O)CC1NC(=O)NC1=O)c1ccc(Cl)cc1 (configuration not stated)
33	4	.	5	-7	-0.8	39	.	-11	.	O=c1c2c(-c3ccc(Cl)cc3)csc2ncn1/N=C/c1cccc([N+](=O)[O-])c1O
34	6	i	4	9	-1.0	-6	2.7	-0.4	0.74	O=C(Nc1ccc(F)cc1F)N1CCN(C/C=C/c2ccccc2)CC1
35	15	i	10	-2	1.7	-4	1.4	-2.8	0.76	CCOC(=O)c1c(NC(=O)C2c3ccccc3Oc3ccccc32)sc(C(C)=O)c1C
36	8	i	52	-7	22	38	97*	1.9	0.61	O=C1C=C(N2CCOCC2)c2ccccc2C1=O
37	.	i	19	35	-1.4	.	.	9.6	.	CC1(C(=O)NS(=O)(=O)c2ccccc2C(F)(F)F)CCN1C(=O)CCc1cccs1 (configuration not stated)
38	11	.	.	.	.	-17	1.7	0.5	0.7	Cc1ccccc1-c1nc(CN2CCC(C(=O)NCCC3=CCCCC3)CC2)c(C)o1
39	2	i	15	14	6.5	8	2.0	-3.6	.	Cc1ccc(NC(=O)CN2C(=O)S/C(=C\c3cccn3-c3cccc(C(=O)O)c3)C2=O)cc1C
40	5	.	2	7	-0.4	0	3.0	-2.3	0.72	O=C(NCc1ccco1)C(C(=O)c1ccc(F)cc1)n1ccccc1=O (configuration not stated)
41	1	i	5	6	-1.1	-3	.	-2.1	.	O=C(N/N=C\c1cccnc1)C1c2ccccc2Oc2ccccc21
42	0	.	.	.	.	-2	0.7	3.7	0.64	CC(=O)Nc1ccc(NC(=O)c2ccco2)cc1
43	2	i	-6	-7	0.4	5	-0.1	3.0	0.72	Cc1ccc(S(=O)(=O)N(C)c2c(C)ccc(S(=O)(=O)NC(C)(C)C)c2C)cc1
44	-6	.	.	.	.	-18	1.4	-0.2	0.75	COc1cccc(OCC(=O)Nc2ccc(OC)c(OC)c2)c1
45	10	.	.	.	.	-2	3.1	-2.2	0.74	Cc1c(NC(=O)C2CCN(S(=O)(=O)c3ccccc3)CC2)c(=O)n(-c2ccccc2)n1C
46	-1	i	-6	3	2.2	-14	.	0.4	.	Cc1ccc(/C=N/NC(=O)c2ccc(-n3cccc3)cc2)o1
47	5	.	9	6	0.1	-51	0.5	0.5	0.66	CCOC(=O)C1CCCN(CCC(C)c2ccccc2)C1 (configuration not stated)
48	1	i	14	11	-2.4	.	.	4.2	.	CC(C)(C)OC(=O)N(CCc1ccccc1)Cc1cccc(OCc2cccc(NC(=O)C3CCCC3)c2)c1
49	0	i	20	12	3.3	-4	-0.5	3.8	0.66	Cc1ccc(NC(=O)[C@@H](NC(=O)c2cccc(S(=O)(=O)N3CCOCC3)c2)C(C)C)cc1C
50	.	i	3	-1	-2.2	.	.	7.2	.	CCOc1ccc(C(=O)COC(=O)Cn2[nH]c(=O)c3ccccc3c2=O)cc1
51	27	i	-10	-16	17	.	5.4	2.8	0.66	S=C(Nc1cccc(Cl)c1)N(CCCN1CCCC1)Cc1cccn1Cc1ccc(Cl)cc1
52	-4	i	-12	-14	-3.6	.	3.2	-4.7	0.65	CC(=O)c1ccc(-n2c(-c3cc(-c4ccsc4)n[nH]3)n[nH]c2=S)cc1
53	11	.	.	.	.	-12	.	3.0	.	CCOC(=O)CC(NC(=O)c1cc2cccc(OC)c2oc1=O)c1cccc([N+](=O)[O-])c1 (configuration not stated)
54	-6	i	-2	-7	-1.1	-21	3.4	1.8	0.69	CN(C)C(CNC(=O)C1CCN(S(=O)(=O)c2cccc(Cl)c2Cl)CC1)c1ccccc1 (configuration not stated)
55	-16	.	-4	7	-3.9	-10	2.3	-0.5	0.74	C=CCn1c(SCCN2C(=O)c3ccccc3C2=O)nc2scc(-c3ccccc3)c2c1=O
